HIV TAR-Tat: HIV-1 TAR-Tat binding disruption | HIV-1 TAR RNA, Tat peptide displacement FRET; stronger effect = higher value | z-score (test concentration not listed) | actives 0.6% (n = 100,000);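 further: score is relative to mean and SD of negative controls; some compounds called inactive have numbers as strong as hits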
CDC25B CDK2 inh: human CDC25B-CDK2/CyclinA binding inhibition | P30305+P24941 | HTRF CDC25B-CDK2/CyclinA binding, anti-His/anti-Flag; stronger effect = higher value | actives 0.72% (n = 94,000) | z-score (test concentration not listed);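 further: score is relative to mean and SD of negative controls; strong numbers were not always called active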
Numbers without * were called inactive; nt = not tested or not shown; & = joins results of further samples.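 How the source made its calls: active means z-score from 3 up in half or more of its runs; inactive means the rest.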

SMILES	HIV TAR-Tat	CDC25B CDK2 inh
Cc1cc(C)n2ncc(C(=O)NCCC(C)C)c2n1	1.5	nt
Cc1ccc(C(=O)c2coc3ccc(O)c(CN4CCN(C)CC4)c23)cc1	0.69	-0.6
COc1ccccc1-n1c(=O)[nH]c2c(C(N)=O)nc(-c3cccnc3)nc21	0.44	nt
CCCn1c(NC(C)CC)nc2c1c(=O)n(C)c(=O)n2C (centres undefined)	nt	-0.09
CCCN(CCC)C(=O)CSc1nc(-c2ccccc2)nc2cc(=O)[nH]n12	1.1	nt
CCCc1nn2c(=O)cc(COC(=O)c3ccccc3Br)nc2s1	0.07	nt
CC1CCCCN1CCNC(=O)C1CCCN(c2ncnc3c2nc2n3CCCCC2)C1 (centres undefined)	-2.2	nt
COc1ccc(Cl)cc1NS(=O)(=O)c1ccc2c(c1)N(C)CCO2	1.1	nt
Cc1ccc2c(=O)cc(C(=O)Nc3sc4c(c3C(=O)NCc3ccco3)CCCC4)oc2c1C	0.16	-2.5
O=C(Cn1ncc2c([nH]c3ccccc32)c1=O)Nc1ccc(F)cc1	2.3	nt
Cc1ccc(-c2csc3nc(-c4cccs4)oc(=O)c23)cc1	4.2	-0.41
Cc1ccc(S(=O)(=O)N2CCCc3cc(NS(=O)(=O)c4cc(F)ccc4F)ccc32)cc1	-0.22	nt
CN(C)c1ccc(/C=C/c2nc3n(n2)C=COc2ccccc2-3)cc1	-7	-0.68
COc1ccc(OC)c(-n2c(SCC(=O)Nc3ccc(F)cc3)nc3c(c2=O)SCC3)c1	1	-2.8
CCC(Sc1nncn2c1cc1oc(C)cc12)C(=O)NCc1ccc(C)cc1 (centres undefined)	0.22	nt
CC1CCN(c2cc(NCc3ccco3)c3c4c(onc24)-c2ccccc2C3=O)CC1	0.48	-0.66
O=c1c2sccc2nc(SCc2cc(=O)n3cc(Cl)ccc3n2)n1C1CC1	nt	-1.3
Fc1ccc(-c2nnc3ccc(NCCCc4ccccc4)nn23)cc1	1.9	-1.2
CCc1cc2c(=O)c(-c3nc4ccccc4[nH]3)c(C)oc2cc1OC(C)=O	-0.44	-1.1
CC1CCN(c2ccc(NC(=O)NC3COc4ccccc4C3)cc2)CC1 (centres undefined)	0.91	nt
OCCNc1ncnc2c1c(-c1ccccc1)cn2-c1ccc(Br)cc1	nt	-5.6
CCn1c(C(C)O)nc2ccccc21 (centres undefined)	0.07	-1.8
CCOC(=O)c1c(NC(=O)c2cc(=O)c3cc(Cl)ccc3o2)sc(C)c1C	-0.31	-1
CC1(C)C(=O)N(CC(=O)Nc2nccs2)c2ccc(S(=O)(=O)N3CCCCC3)cc21	-0.41	nt
O=S1(=O)C[C@H](NCc2ccco2)[C@@H](S(=O)(=O)c2ccccc2)C1	-1.5	-0.88
CC(C)NC(=O)c1cc2c(s1)CS(=O)(=O)C2	-0.86	-0.5
CCOC(=O)c1c(NC(=O)COc2ccccc2)sc2c1CCC2	3.6	-1.1
Cc1nc(/C(N)=N/OC(=O)Nc2cccc(C(F)(F)F)c2)cs1	nt	-1.5
O=C(CSc1nccc2ccccc12)Nc1ccc(F)cc1	nt	-0.62
CSC(/N=C/N(C)C)=N/N=C/c1c(Cl)cccc1Cl	nt	-0.13
COc1ccc(OCC(=O)Nc2nccs2)cc1	0.3	-0.96
COc1ccc(-c2noc(NC3CCCc4ccccc43)n2)cc1 (centres undefined)	3	-0.55
CN(C)c1nc(NCCc2cccs2)c2cnn(C)c2n1	1.5	nt
CC(=O)N(CCCN(C)C)c1nc2cc(C)cc(C)c2s1	2.1	nt
CCOC(=O)c1ccc(-n2c(=S)sc3c(=O)[nH]c(C)nc32)cc1	-0.18	-0.59
CCOC(=O)C1CCN(S(=O)(=O)c2sc(Cl)cc2Br)CC1	nt	-1.5
Cc1cc(C)cc(NC(=O)CSc2nc(=O)n(CCN(C)C)c3c2CCC3)c1	0.82	nt
O=C(O)C1COc2ccccc2O1 (centres undefined)	1	nt
COc1ccc(NC(=O)c2nn(-c3ccc(F)cc3)ccc2=O)cc1	-0.09	-1.3
CCOC(=O)CSc1nc(-c2ccccc2)c(C#N)c(=O)[nH]1	4.5	-1.9
CC(C)S(=O)(=O)/C(C#N)=C/c1ccccc1OC(F)(F)F	nt	-1.1
Cc1cc(C)c(-c2c(N3CCOCC3)c(=O)c2=O)cc1C	1.1	nt
O=C(Cn1ncn2cccc2c1=O)N1CCCCC1	nt	-2.5
O=C(Nc1ccccc1Br)C1CCN(C(=O)N2CCOc3ccccc32)CC1	1.3	nt
COc1nc2ccc(C)cc2cc1-c1noc(-c2ccccc2)n1	1.3	0.19
Cc1cc(=O)n2[nH]c(CC(=O)O)nc2n1	-0.65	-1.3&0.39
COc1ccc(C2/C(=C(\O)c3ccc(F)cc3)C(=O)C(=O)N2c2ccccn2)cc1OC (centres undefined)	-0.19	-0.26
NC(=O)c1cccc2cccc(I)c12	nt	-1.2
C=CCOc1ccc(/C(O)=C2\C(=O)C(=O)N(Cc3cccnc3)C2c2ccc(N(C)C)cc2)cc1C (centres undefined)	0.35	-1.7
CCOC(=O)c1cc(-c2ccc(S(=O)(=O)Nc3ccc4c(c3)OCCO4)s2)on1	0.23	nt
The list goes on:
SMILES	HIV TAR-Tat	CDC25B CDK2 inh
CC(C)N1CC2(c3ccccc31)N1CC3(C)CN2CC(C)(C1)C3=O (centres undefined)	nt	-2.2
CN1CCN(CCNC(=O)c2cc(-c3ccccn3)nc3ccccc23)CC1	1.1	nt
COc1ccc(C2CC(=O)C3=C(C2)Nc2nnnn2C3c2cccc(Cl)c2)cc1 (centres undefined)	0.15	nt
O=C(Nc1ccccc1)C1CCCN(S(=O)(=O)c2ccc3[nH]c(=O)oc3c2)C1 (centres undefined)	0.92	nt
CCNc1ncnc2c1cnn2-c1cccc(Cl)c1	-0.83	nt
Cc1cc(C(=O)N/N=C/c2[nH]ncc2Br)no1	nt	-2.9
COc1ccc(Cl)cc1-n1nnc(S(=O)(=O)c2ccc(C)c(C)c2)c1C	-0.83	1.4
Cc1ccc(-c2cc(C(F)(F)F)n3ncc(C(=O)Nc4ccc5c(c4)OCO5)c3n2)cc1	-0.64	0.83
CC1CC(=O)Nc2cc(S(=O)(=O)Nc3cccc(Br)c3)ccc2S1 (centres undefined)	0.7	nt
CSC(=NCCSC(C)(C)C)NC#N	nt	-0.53
CCOC(=O)C1CCCN(C(=O)CCNC(=O)Cn2cnc3ccccc3c2=O)C1 (centres undefined)	nt	-0.34
CN(C)CCC(c1ccc(Cl)cc1)c1ccccn1 (centres undefined)	1.3&1.9	-0.18&-1
Cc1nn(-c2nc3ccc(Br)cc3s2)c2c1C(c1cccnc1)CC(=O)N2 (centres undefined)	0.88	nt
CCOC(=O)[C@H]1OC1C(=O)N[C@@H](CC(C)C)C(=O)NCCC(C)C (some centres undefined)	-1.8	nt
NC(=O)CSc1nnc(CSc2ncccn2)n1-c1ccc(Cl)cc1	0.23	-1.1
CC1CCN(S(=O)(=O)c2cc3c4c(c2)CC(=O)N4CCC3)CC1	1.6	nt
O=C(Nc1ccccc1)OC1CCCC1	nt	0.91
CCN(c1nc(C)cc(OC)n1)S(=O)(=O)c1ccc(C)cc1	-0.5	-0.18
Cc1ccc(O)c(CNc2nc3ccccc3n2C(C)C)c1	0.55	0.53
CCOc1ccc(OCC)c(NC(=O)C2=C(C)C(=O)OC23CCN(S(=O)(=O)CC)CC3)c1	0.39	nt

Whole records as entered above:
`O=C(Nc1ccccc1)OC1CCCC1` as listed: HIV TAR-Tat: nt; CDC25B CDK2 inh: 0.91
`CCOC(=O)c1ccc(-n2c(=S)sc3c(=O)[nH]c(C)nc32)cc1` as listed: HIV TAR-Tat: -0.18; CDC25B CDK2 inh: -0.59

Additional records.
SMILES	HIV TAR-Tat	CDC25B CDK2 inh
CNC(=O)NNc1cc(C)c2c(N)[nH]nc2n1	nt	-2.2
O=C(NCCC1=CCCCC1)c1cnc(N2CCCC2)nc1	2.7	-1.5
CN(C(=O)C1CCN(S(=O)(=O)c2cccc3nsnc23)CC1)c1ccc(Br)cc1	0.49	nt
O=C1CCCC2=C1C(c1ccc(Cl)cc1)n1nc(-c3cccnc3)nc1N2 (centres undefined)	-0.15	-1
Cc1ccc(NC(=O)Nc2c(C)nc3nc[nH]n3c2=O)cc1C	0.38	nt
CC(CC(=O)Nc1cccc(Br)c1)S(=O)(=O)c1ccc2c(c1)CCN2C(=O)C1CC1 (centres undefined)	0.89	nt
N#CC(C#N)=CNc1cccc(N)n1	nt	0.36
CCn1c(=O)c2sccc2n2c(CCCC(=O)NCCNC(C)=O)nnc12	-0.9	nt
CCOc1ccc(C2CC(c3ccc(CC)cc3)Nc3nc(N)nn32)cc1 (centres undefined)	0.18	-1.9
O=C1CSc2ccc(S(=O)(=O)N3CCC(C(=O)NCC4CCCO4)CC3)cc2N1 (centres undefined)	1.5	nt
CCOc1ccc(S(=O)(=O)Nc2cccc(-c3ccc(S(C)(=O)=O)nn3)c2)cc1	-0.53	nt
Cc1nnc(NC(=O)CSc2nc(-c3ccccc3C)nc3cc(=O)[nH]n23)s1	0.56	nt
CC(C)CC(NS(=O)(=O)c1ccc2c(c1)CCCC(=O)N2)C(=O)NC1CCC(C)CC1 (centres undefined)	-0.41	nt
Cc1ccccc1C(=O)OCc1cc(=O)n2c(-c3ccccc3)csc2n1	-0.36	nt
CC1=C(C(=O)Nc2ccccc2)C(C(C)C)n2ncc(C(=O)Nc3ccccc3)c2N1 (centres undefined)	0.37	-1.2
O=C(CSc1ncnc2nc[nH]c12)N1CCN(c2ccccc2)CC1	nt	0.49
Cc1ccc(N2C(=O)N(c3ccccc3C)C3CS(=O)(=O)CC32)cc1 (centres undefined)	-0.17	-1.6
CCn1nc(C)c(CNS(=O)(=O)c2c(C)nn(C)c2C)c1C	0.05	nt
COc1ccccc1CNc1n[nH]c(=S)s1	nt	-0.94
O=C1c2ccccc2S(=O)(=O)N1Cc1ccc2nsnc2c1	nt	-2.7
COc1ccc2[nH]cc(CCNC(=O)c3cccnc3)c2c1	nt	-1.3
O=C1c2cc(S(=O)(=O)N(CCO)CCO)ccc2-c2ccc(S(=O)(=O)N(CCO)CCO)cc21	nt	-1.7
O[C@@H]1C=CO[C@@H]2COC(c3ccccc3)O[C@@H]12 (some centres undefined)	nt	-1.1
COc1ccccc1OCC(=O)N(Cc1ccco1)C1CCS(=O)(=O)C1 (centres undefined)	1.5	-1.4
CSc1nc(C)cc(Nc2ccc(N3CCC(C)CC3)cc2)n1	0.65	-0.87
COc1cccc(C2Nc3ccc(C(=O)c4ccccc4)cc3NC3=C2C(=O)CCC3)c1 (centres undefined)	0.89	-2.4
O=C(NCCCN1CCOCC1)NC1COc2ccccc2C1 (centres undefined)	1.3	nt
O=S(=O)(Nc1ccc(S(=O)(=O)Nc2ncccn2)cc1)c1ccc(F)cc1	0.32	-0.34
COc1ccc(OC)c2[nH]c(=O)c(CCNC(=O)C34CC5CC(CC(C5)C3)C4)cc12	nt	-0.87
COc1cccc(NC(=S)NNc2ccc([N+](=O)[O-])cc2)c1	nt	-1.2
CCn1c(C(=O)O)cc2cc(S(=O)(=O)N(C)C)ccc21	0.4	0.51
O=C(NCc1ccc2c(c1)OCO2)C1Cc2ccccc2N1C(=O)c1ccccc1 (centres undefined)	1.6	nt
O=C(NCc1ccc2c(c1)OCO2)c1ccc(CN2C(=O)CSc3ncccc32)cc1	0.83	nt
COc1cc(NC(=O)c2cc(S(=O)(=O)N3CCCC3)c[nH]2)cc(OC)c1	3.3	nt
O=C1CCCN1CCCNc1nc2ccccc2c2nc(-c3ccncc3)nn12	-0.13	0.52
O=C1OC(c2ccccc2)=N/C1=C/c1ccc(-c2cccs2)s1	nt	-0.39
Cc1cc(=O)n2[nH]c([N+](=O)[O-])nc2n1	nt	-0.39
COc1cccc(CN2CCN(CC3CC4C=CC3C4)CC2)c1 (centres undefined)	0.21	-2.5
CCN1CCN(c2nc(NCc3ccccc3C)c3cnn(C)c3n2)CC1	1	nt
Cc1ccc(-c2nc(C(N)=O)c3[nH]c(=O)n(-c4ccc(F)cc4)c3n2)cc1C	1.9	nt
CCN(CC)CCNc1nc(C)cc(C)n1	0.56	-0.63
COc1ccc(/C=C/c2nc(C#N)c(N3CCOCC3)o2)cc1OC	-0.88	-0.95
CCCN(CCC)S(=O)(=O)c1ccc(C(=O)NNC(=O)c2cc(Cl)ccc2N)cc1	nt	-1.1
CC(C)C(=O)NC(C)c1nc(-c2ccc(C(C)(C)C)cc2)no1 (centres undefined)	2.2	-2.6
CN(C(=O)CSc1ccc(Cl)cc1)c1ccccc1C(=O)NC1CCCCC1	nt	3.5
COc1ccc(Br)c(OC)c1C(=O)NC(=O)Nc1cc(Cl)cc(Cl)c1	nt	-2.1
Cc1ccc(S(=O)(=O)Nc2ccc3c(c2)n(C)c(=O)n3C)c(C)c1	-0.93	-1.8

Grouped by structure, the entries above with an aryl thioether with sulfur outside any ring (12)
SMILES	HIV TAR-Tat	CDC25B CDK2 inh
CCCN(CCC)C(=O)CSc1nc(-c2ccccc2)nc2cc(=O)[nH]n12	1.1	nt
COc1ccc(OC)c(-n2c(SCC(=O)Nc3ccc(F)cc3)nc3c(c2=O)SCC3)c1	1	-2.8
CCC(Sc1nncn2c1cc1oc(C)cc12)C(=O)NCc1ccc(C)cc1 (centres undefined)	0.22	nt
O=c1c2sccc2nc(SCc2cc(=O)n3cc(Cl)ccc3n2)n1C1CC1	nt	-1.3
O=C(CSc1nccc2ccccc12)Nc1ccc(F)cc1	nt	-0.62
Cc1cc(C)cc(NC(=O)CSc2nc(=O)n(CCN(C)C)c3c2CCC3)c1	0.82	nt
CCOC(=O)CSc1nc(-c2ccccc2)c(C#N)c(=O)[nH]1	4.5	-1.9
NC(=O)CSc1nnc(CSc2ncccn2)n1-c1ccc(Cl)cc1	0.23	-1.1
Cc1nnc(NC(=O)CSc2nc(-c3ccccc3C)nc3cc(=O)[nH]n23)s1	0.56	nt
O=C(CSc1ncnc2nc[nH]c12)N1CCN(c2ccccc2)CC1	nt	0.49
CSc1nc(C)cc(Nc2ccc(N3CCC(C)CC3)cc2)n1	0.65	-0.87
CN(C(=O)CSc1ccc(Cl)cc1)c1ccccc1C(=O)NC1CCCCC1	nt	3.5

Compound activity from PubChem.
